Compound activity from PubChem BioAssay.
Biofilm kill mix: mixture kills Candida albicans biofilm cells. C. albicans biofilm persisters + clotrimazole, fluorescence viability; primary screen in compound mixtures of four per well. inhibition, % at 7.6 µM. actives 0.02% (n = 120,000). AID 1242;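 active = inhibition above 30.3% in the primary screen of four-compound pools, then above 30% when the compound was retested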;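 also: compounds exposed to preformed 24 h biofilms for 48 h; the number belongs to the whole pool; some results filed as inactive read as strong as hits; inactives centre near 12; 0% = biofilm with clotrimazole alone and 100% = kill control; retested singly at about 60 µM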
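Test system: C. albicans biofilms. Buffer or medium: RPMI/MOPS medium, pH 7.0. Timing: 48 h compound exposure at 37 °C. Technique: Alamar Blue fluorescence. Evaluation: percent inhibition of biofilm viability.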
* marks the source's active call; other numbers are inactive results. The list is partial; count on the stated rates, not on these rows.

Start of the listing, in advance (4 entries):
molecule | Biofilm kill mix
COc1cc2occc2c2oc(=O)ccc12 | 11
O=C(O)CSC(=S)N1CC2CC(C1)c1cccc(=O)n1C2 (stereo unspecified) | 10
c1ccc2c(c1)CSc1ccccc1C2C1=NCCN1 (stereo unspecified) | 22
C[C@]12CCC(=O)C=C1CCC1C2CC[C@@]2(C)C1CC[C@@]2(O)CC#N (stereo partly specified) | 8

All compounds of this part, repeating the preview:
molecule | Biofilm kill mix
COc1cc2occc2c2oc(=O)ccc12 | 11
O=C(O)CSC(=S)N1CC2CC(C1)c1cccc(=O)n1C2 (stereo unspecified) | 10
c1ccc2c(c1)CSc1ccccc1C2C1=NCCN1 (stereo unspecified) | 22
C[C@]12CCC(=O)C=C1CCC1C2CC[C@@]2(C)C1CC[C@@]2(O)CC#N (stereo partly specified) | 8
Cc1ccc(-c2nc3ccccc3c(=O)n2-c2ccc(O)cc2)cc1 | -1
COc1cccc(NP(=O)(Oc2ccccc2Cl)Oc2ccccc2Cl)c1 | 8
NCC(O)c1ccc(O)cc1 (stereo unspecified) | 11
Cc1c(N=Nc2c(O)[nH]c(=O)[nH]c2=O)c(=O)n(-c2ccccc2)n1C | -7
COC(=O)C(O)(c1ccc(NC(=O)Oc2ccccc2)cc1)C(F)(F)F (stereo unspecified) | 16
Cn1cc2c([N+](=O)[O-])cc([N+](=O)[O-])cc2n1 | 10
CC(=O)NN1C(=O)c2ccccc2NC1c1cccnc1 (stereo unspecified) | 13
Cc1ccc(C)c(NC(=S)NCCc2cnc[nH]2)c1 | 13
Cc1ccc(C)c(Cn2c(C(=O)O)c(C=O)c3ccccc32)c1 | -6
Cc1ccnc(-n2c(C)cc(/C=C3\C(=O)NC(=S)N(C)C3=O)c2C)c1 | 22
C=C(C=O)C[C@@H]1C[C@H](O)C2OC3C[C@]4(C)OC5/C=C\CC6OC7C(CC=CCC6OC5CCCC4OC3CC2O1)OC1CC2OC3CC(=O)OC3C[C@@H](C)C[C@@]2(C)OC1C[C@@H]7C (stereo partly specified) | 20
O=C1NC(=S)N(C2CC2)C(=O)/C1=C/c1ccc2c(c1)CCN2CCCCl | 7
COc1ccc(O)c2c(=O)c3c(OC)cc4c(c3oc12)C1C=COC1O4 (stereo unspecified) | 25
COC(=O)C[C@]1(C(=O)OC)CN(C#N)N(c2ccc(Cl)cc2)C12c1ccccc1-c1ccccc12 | 14
CCOC(=O)C1(CCCc2ccccc2)CCN(C2CCC2)CC1 | 2
CCn1ccnc1CN1CCCC(C(=O)c2ccc(OC)cc2OC)C1 (stereo unspecified) | 8
NNCc1cccc(O)c1 | 19
Cc1oc(-c2ccc(F)cc2F)nc1CN1C[C@@H]2C[C@@H](C1)c1cccc(=O)n1C2 | 16
CN(C)CC1CCCCC1OC(=O)c1ccc(Cl)c(Cl)c1 (stereo unspecified) | 13
CCCCCCn1c(=O)c(C(=O)Nc2c(C)n(C)n(-c3ccccc3)c2=O)c(O)c2ccccc21 | 21
CN1C(=O)C(=Cc2ccc(Sc3ccccc3)o2)C(=O)N(C)C1=O | 4
O=C(Nc1nccs1)C(Cl)(Cl)Cl | 10
CC(C)c1ccc(C2N3CCCN23)cc1 (stereo unspecified) | 7
Cc1nc(Cl)sc1C(=O)Nc1ccc2ccccc2c1 | 15
Clc1cccc(N2CCNCC2)c1Cl | 19
Cc1cc(C)[n+](C2C3CC4CC(C3)CC2C4)o1 (stereo unspecified) | 17
CN1CCC2(O)OCCCC2C1 (stereo unspecified) | 20
C=CCN1C(=O)NC(=O)/C(=C/c2ccoc2)C1=O | 5
Cc1ccc(-n2c(O)c(/C=N/c3ncc(Br)cc3Br)c(=O)[nH]c2=O)cc1 | 18
C[N+]1(C)CCOC(O)(c2ccc(-c3ccc(C4(O)C[N+](C)(C)CCO4)cc3)cc2)C1 (stereo unspecified) | 0
COC(=O)c1cccc(N=Cc2c(O)n(Cc3ccc(F)cc3)c(=O)[nH]c2=O)c1 | 19
O=C(CN1CCCCC1)c1ccccc1F | 13
CN(C)CCCN=Cc1c(O)n(Cc2ccco2)c(=O)[nH]c1=O | 9
CCn1cc(C(=O)N2CCOCC2)c2ccccc21 | 7
Nc1c(C(=O)NCc2ccco2)c2nc3ccccc3nc2n1Cc1ccccc1 | 14
CCOc1ccc(NC(=O)c2ccc(NC(=O)COC(=O)Cc3ccccc3)cc2)cc1 | 16
Cc1cc2ccccc2c(=O)n1CC(=O)NCC(=O)N1CCC2(CC1)OCCO2 | 19
c1cncc(CNC2CCCC2)c1 | 16
CN(C)C(=O)Oc1ccc(Br)c2ccccc12 | 3
COc1ccc(C(Nc2ccccc2)P(=O)(Oc2ccccc2)Oc2ccccc2)cc1 (stereo unspecified) | 8
O=C1CC(=O)N(Cc2ccccc2)C(=O)N1CCCCCCN1C(=O)CC(=O)N(Cc2ccccc2)C1=O | 12
COc1ccc(C2=CC(c3ccc(OC)c(OC)c3)c3c(c4ccccc4oc3=O)O2)cc1OC (stereo unspecified) | 25
COc1ccc2nc3oc(C(=O)N4CCC5(CC4)OCCO5)cc3cc2c1 | 9
Nc1ccncc1Cl | 19
O=C(NCCCN1CCOCC1)C(Cl)(Cl)Cl | 12
CNC(=O)O/N=C(\N)Cc1csc2ccc(Cl)cc12 | 17
O=c1c2ccccc2nc(CNc2ccccc2)n1-c1ccccc1 | 17
CCOP(=O)(OCC)C(NS(=O)(=O)c1ccccc1)C(Cl)(Cl)Cl (stereo unspecified) | 21
O=C1NC(=O)N(CCc2ccc(F)cc2)C(=O)/C1=C/c1ccco1 | 9
S=c1[nH]c2ccccc2[nH]1 | 13
Cc1ccc(-n2c(O)c(/C=N/NC(=O)c3ccncc3)c(=O)[nH]c2=O)cc1C | 7
C[N+]1(CC(COCc2ccccc2)OC(=O)Cc2ccccc2)CCOCC1 (stereo unspecified) | 19
C=C1C2C[C@H](O)C(C)(C)[C@@]2(O)[C@H](O)C[C@]23C[C@@](C)(O)[C@H](CC[C@H]12)[C@H]3OC(C)=O (stereo partly specified) | 5
Cc1ccc(N2C(=O)NC(=O)C(CCc3ccccn3)(Cc3cccc(Cl)c3Cl)C2=O)cc1 (stereo unspecified) | 15
COc1cc(CNCCc2ccc3c(c2)OCO3)cc(OC)c1OC | 6
CCN(CC)c1ccc(/C=C2/C(=O)NC(=O)N(Cc3ccco3)C2=O)cc1 | 19

(continued)
molecule | Biofilm kill mix
CCCOP(=O)(OCCC)C(NC(=O)c1cc(OC)c(OC)c(OC)c1)c1ccccc1 (stereo unspecified) | 5
CC1(C)CSC(=NCc2ccccc2)N1 | 17
Cc1[nH]c2ccccc2c1CCCNC1CCCCC1 | 18
CC(C)(C#CCCCCC#CC(C)(C)[N+](C)(C)C)[N+](C)(C)C | 15
O=C(Cn1ccc2ccccc2c1=O)NCC(=O)N1CCC2(CC1)OCCO2 | 6
O=C1NC(=O)C(=C/C=C/c2coc3ccc(Br)cc3c2=O)C(=O)N1 | 20
COc1ccc(OC)c(N2C(=O)NC(=O)/C(=C\c3ccc([N+](=O)[O-])s3)C2=O)c1 | 10
Fc1ccc(Cn2nnnc2C(c2ccc(Cl)cc2)N2CC=C(c3ccc(F)cc3)CC2)cc1 (stereo unspecified) | 8
Cc1ccc(CN2CCCC(C(=O)c3ccc4c(c3)OCO4)C2)cc1C (stereo unspecified) | 24
O=C(O)CC1OCC=C2CN3CCC45C6=CC(=O)C(=O)C([N+](=O)[O-])=C6NC4C1C2CC35 (stereo unspecified) | 21
CCCC[N+]12CCC(CC1)C(Cc1ccccc1)C2 (stereo unspecified) | 25
O=C1NC(=O)C(CCc2ccncc2)(CCc2ccncc2)C(=O)N1Cc1ccc(F)cc1 | -2
CCCCn1c(=O)c(C(=O)Nc2ccccc2)c(O)c2ccccc21 | 18
O=C(NC1(C(F)(F)F)Oc2ccccc2O1)N1CCC2(CC1)OCCO2 | 17
O=C1NC(=S)N(c2ccccc2F)C(=O)/C1=C\c1cccs1 | 21
CCOC(=O)c1c(NS(=O)(=O)c2ccccc2)n(CCCOC)c2nc3ccccc3nc12 | -2
COc1ccccc1OCC#CCN1CCCC1 | 29
O=C(CNC(=O)c1cccc(Cl)c1)Nc1ccc(Br)cc1C(=O)c1ccccc1 | 8
COc1ccc(CN2C(=O)NC(=O)/C(=C/c3ccc(OC)c(OC)c3OC)C2=O)cc1 | 1
CCCC12CN3CCN(CC(C3)/C1=N\NC(=O)c1ccncc1)C2 | 17
CCN(CC)P(=O)(NC(=O)c1cccn1C)N(CC)CC | -1
CC(C)(C)c1ccc(C(=O)C2CCCN(Cc3ccon3)C2)cc1 (stereo unspecified) | 13
O=c1c2ccccc2nc(/C=C/c2ccc(O)cc2)n1-c1ccccc1O | 15
CC/C(=N\Nc1cccc2ccccc12)c1c(O)[nH]c(=O)[nH]c1=O | 31
CCOc1ccc(N2C(=O)NC(=O)/C(=C\c3ccc(N4CCOCC4)cc3C)C2=O)cc1 | 2
O=C(c1ccccc1)c1ccc(N=Nc2c(O)[nH]c(=O)[nH]c2=O)cc1 | 13
O=c1[nH]c(=S)n(Cc2ccc(F)cc2)c(O)c1/C=N/N1CCCCCC1 | 17
O=C1NC(=O)C(=Cc2ccc(SC3CCCCC3)o2)C(=O)N1 | 16
CSc1ccc(C(=O)C2CCCN(Cc3ccn[nH]3)C2)cc1 (stereo unspecified) | 9
O=C(Cc1ccccc1)N1CCN(Cc2ccc([N+](=O)[O-])cc2)CC1 | 15
CN1C2CCC1CC(OC(=O)c1ccc(Cl)cc1)(C(=O)O)C2 (stereo unspecified) | 9
Cc1c(C(=O)O)cccc1-n1c(C)cc(/C=C2\C(=O)NC(=O)N(c3ccc4c(c3)OCO4)C2=O)c1C | -7
CC1(C)Cc2c(C#N)c(N3CCNCC3)nc(-c3ccco3)c2CS1 | 14
CCN(CC)CCN=Cc1c(O)n(Cc2ccco2)c(=O)[nH]c1=O | 1
Oc1ccccc1/C=N/NP(=S)(c1ccccc1)c1ccccc1 | 14
Cc1ccccc1N1C(=O)NC(=O)/C(=C\c2cc(C)n(C)c2C)C1=O | 4
O=C1/C(=C/c2ccc([N+](=O)[O-])cc2)N2CCC1CC2 | 14
C=CCn1c(O)c(C(CC)=NCc2ccc3c(c2)OCO3)c(=O)[nH]c1=O | 21
CCOC(=O)C(O)(c1ccc(NC(=S)NC(=O)c2ccc(Cl)cc2Cl)cc1)C(F)(F)F (stereo unspecified) | 13
CC1(C)CC(=O)c2cc(OCC(=O)N3CCN(Cc4ccccc4)CC3)ccc2O1 | 5
Cc1ccc(-c2cc(C(=O)N3CCC4(CC3)OCCO4)no2)cc1 | -2
Nc1ccc(C2(c3ccc(N)cc3)CCCCC2)cc1 | 6
COc1ccc(OC)c(NP(=O)(Oc2ccc(Cl)cc2)Oc2ccc(Cl)cc2)c1 | 16
C[C@H]1CC[C@@H]2[C@@H](C)[C@H]3[C@H](C[C@H]4[C@@H]5CC=C6C[C@@H](O[C@@H]7O[C@H](CO)[C@H](O)[C@H](O[C@@H]8O[C@H](CO)[C@@H](O)[C@H](O)[C@H]8O)[C@H]7O[C@@H]7O[C@@H](C)[C@H](O)[C@@H](O)[C@H]7O)CC[C@]6(C)[C@H]5CC[C@]34C)N2C1 | 10
O=c1[nH]sc2cc(F)ccc12 | 11
CC(C)Oc1ccc(CCN)cc1Cl | 16
O=C(c1c[nH]c2ccc(S(=O)(=O)N3CCC4(CC3)OCCO4)cc2c1=O)N1CCC2(CC1)OCCO2 | 8
NC(=O)OCCSc1nnc(-c2cccc(C(N)=S)c2)o1 | 7
COC(=O)CN1C(=O)CN=C(c2ccccc2Cl)c2cc(Br)ccc21 | 16
CN1C(=O)C(=Cc2ccccc2OCc2ccc(Cl)cc2)C(=O)N(C)C1=O | 9
COc1ccc(-c2nn(CCC#N)cc2C(=O)Nc2ccccc2Br)cc1[N+](=O)[O-] | 20
CCn1c(NN=O)nc2ccccc21 | -4
COc1ccc(C(O)c2cc(OC)ccc2OP(=O)(N(C)C)N(C)C)cc1 (stereo unspecified) | 12
O=C(/C=C/C=C/c1ccccc1)CC1(O)C(=O)Nc2ccccc21 (stereo unspecified) | 15
CCCC(C)C1(CC)C(=O)NC(=Nc2ccccc2)NC1=O (stereo unspecified) | 7
c1ccc2c3c(ccc2c1)OCC1CONC31 (stereo unspecified) | 16
Cc1ccccc1CN1CCN(Cc2ccccc2)CC1 | 19
COc1cccc(C(=O)C2CCCN(C3CCOCC3)C2)c1 (stereo unspecified) | -5
CN1C(=O)NC(=O)/C(=C\C=C\c2ccccc2[N+](=O)[O-])C1=O | 6
COc1ccc(C(C)=O)cc1CC(C(=O)c1ccccc1)N(C)C (stereo unspecified) | 8

The list goes on.
molecule | Biofilm kill mix
Cc1ccn2nc(S(=O)(=O)Nc3c(F)cccc3F)nc2n1 | 8
CNC(=S)N(C)CCc1cc2c(c(OC)c1/C=C1/C(=O)NC(=O)N(C)C1=O)OCO2 | 21
Cc1cc(/C=C2/C(=O)NC(=O)N(Cc3ccco3)C2=O)c(C)n1-c1ccc(C(=O)O)cc1 | 19
c1ccc2c(c1)CC1CNCc3cccc(c31)S2 (stereo unspecified) | 13
O=P(Oc1ccccc1)(Oc1ccccc1)C(Nc1ccccc1)c1ccccc1 (stereo unspecified) | 14

Taken from the entries so far, 5 compounds:
molecule | Biofilm kill mix
COc1cccc(C(=O)C2CCCN(C3CCOCC3)C2)c1 (stereo unspecified) | -5
CN1C(=O)NC(=O)/C(=C\C=C\c2ccccc2[N+](=O)[O-])C1=O | 6
COc1ccc(C(C)=O)cc1CC(C(=O)c1ccccc1)N(C)C (stereo unspecified) | 8
Cc1ccn2nc(S(=O)(=O)Nc3c(F)cccc3F)nc2n1 | 8
CNC(=S)N(C)CCc1cc2c(c(OC)c1/C=C1/C(=O)NC(=O)N(C)C1=O)OCO2 | 21
